RecA intein inh: inhibitors of M. tuberculosis RecA intein splicing; P9WHJ3; cell-free RecA intein splicing, fluorescence; inhibition, %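 (about 9 µM by stock and volumes)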; 0.75% of 290,000 active; AID 2221; in the data active = inhibition above about 30%; inconclusive = no clear call, values can overlap the other calls;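 note: 0% = vehicle wells and 100% = reference inhibitor control wells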
Target sequence (P9WHJ3 whole entry, looked up): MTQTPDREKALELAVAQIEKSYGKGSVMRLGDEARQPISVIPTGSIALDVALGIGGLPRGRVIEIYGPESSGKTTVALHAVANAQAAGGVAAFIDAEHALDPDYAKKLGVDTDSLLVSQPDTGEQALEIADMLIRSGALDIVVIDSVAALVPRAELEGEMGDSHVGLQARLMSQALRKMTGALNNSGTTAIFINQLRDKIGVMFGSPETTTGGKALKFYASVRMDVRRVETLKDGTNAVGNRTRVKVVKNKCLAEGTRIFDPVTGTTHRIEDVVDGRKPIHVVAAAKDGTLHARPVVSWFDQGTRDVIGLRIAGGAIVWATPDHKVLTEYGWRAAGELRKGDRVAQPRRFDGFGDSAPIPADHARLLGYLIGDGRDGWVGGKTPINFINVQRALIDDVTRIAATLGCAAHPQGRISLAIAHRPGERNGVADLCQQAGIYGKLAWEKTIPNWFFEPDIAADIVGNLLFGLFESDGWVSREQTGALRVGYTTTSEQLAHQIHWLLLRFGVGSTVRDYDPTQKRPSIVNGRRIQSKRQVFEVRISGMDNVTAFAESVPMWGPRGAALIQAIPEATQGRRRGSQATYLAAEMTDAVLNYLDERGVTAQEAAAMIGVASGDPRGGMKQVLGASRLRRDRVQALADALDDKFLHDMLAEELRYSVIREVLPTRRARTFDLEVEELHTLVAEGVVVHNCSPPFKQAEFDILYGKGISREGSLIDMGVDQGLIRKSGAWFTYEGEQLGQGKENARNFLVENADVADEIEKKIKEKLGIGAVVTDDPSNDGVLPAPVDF
Mtb growth: M. tuberculosis H37Rv growth inhibitors, H37Rv strain (AID 1626); M. tuberculosis H37Rv growth inhibition; higher % means a stronger effect; one-dose inhibition, % at 10 µM; IC50 in µM for titrated hits; 0.95% of 220,000 active;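 active = confirmed in a dose series; inconclusive = inhibition above 80% but not taken into the dose series; inactive = below 80% or under 30% at every dose of the series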;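 note: bacteria incubated seven days before Alamar blue readout; 0% = bacteria only wells and 100% = bacteria with antibiotic wells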
Mtb bLac sens: beta-lactam sensitization of Mtb H37Rv; M. tuberculosis H37Rv growth with meropenem, percent inhibition; hits of this screen are not shown here; inhibition, % at 25 µM; 0.27% of 330,000 active;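 active = about 74% or more and at least 40 points above the plate without the antibiotic, then above 30% in a dose series; inconclusive = first-round hits that could not be retested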;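 note: growth measured after seven days incubation then overnight dye step; 0% = bacteria only wells and 100% = bacteria with antibiotic; twin plates without the antibiotic show which effects depend on it; some results filed as inactive read as strong as hits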
YopH inh: blocks Yersinia enterocolitica YopH tyrosine phosphatase; fluorescence Ex485/Em525; inhibition, %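 (about 10 µM by stock and volumes)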; 0.16% of 140,000 active; AID 898;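 active = inhibition of 50% or more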;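 note: controls were vehicle for no effect and minimum signal wells for full effect; inactives centre near -20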
Arbovirus inh: blocks arbovirus infection. 0.37% of 200,000 active. inhibition, % at 10 µM. arbovirus infection cell-based antiviral screen;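 active = inhibition from about 30%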;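 note: bluetongue infection of BSR cells; cell survival read as ATP light after 72 h; 0% = infected wells without compound and 100% = uninfected wells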
Arbovirus inh repeat: further read-out of Arbovirus inh, marked with its call; inhibition, %; measured here: 10K subset replicate screen; many hits read low in the repeat;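 first of two repeat runs on a subset; 0% = infected and 100% = uninfected wells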
* marks the source's active call; other numbers are inactive results; ? = inconclusive; . = no result given. Some of the compounds tested; the hit share may differ from the screen's.

SMILES | RecA intein inh | Mtb growth | Mtb bLac sens | YopH inh | Arbovirus inh | others
O=S(=O)(NCCc1ccncc1)c1ccccc1 | -1.7 | -1% | 0 | -21 | 1
COCCNC(=O)c1ccccc1NC(=O)Cc1ccccc1[N+](=O)[O-] | -1.3 | -7% | -3 | . | 2
CCn1c(C)nc2cc(C(=O)NNC(=O)c3ccc(Cl)nc3)ccc21 | -1.2 | -5% | 6 | . | 22
Cc1ccc(C(=O)N2CCN(c3ccc(C(F)(F)F)cn3)CC2)c(C)c1 | -1.6 | 2% | -3 | 6 | 11
CCOC(=O)c1cnc(SCC(=O)NNC(=O)c2ccco2)nc1N | 0.5 | . | 5 | . | .
O=C(Cc1n[nH]c(=O)c2ccccc12)NCc1ccccn1 | -1.6 | 3% | -6 | -13 | 14 | Arbovirus inh repeat=2
COc1cccc(OCC(=O)N(C)Cc2nc(-c3cccc(C)c3)no2)c1 | -0.2 | . | -1 | . | .
CN1CCN(CCCNC(=O)CCN2C(=O)COc3ccccc32)CC1 | 0.9 | . | 2 | . | .
Nc1nonc1-c1nc2ccccc2n1CCC(=O)O | 2.7 | 1% | 9 | -44 | 2
O=C(Nc1ccc2c(c1)CCC2)c1cc(S(=O)(=O)N2CCN(c3ccccc3)CC2)ccc1Cl | 1.4 | 1% | 2 | -2 | 3
O=C(Cn1c(=O)oc2ccccc21)NC(=O)NCc1ccccc1 | -3.3 | -5% | -5 | -94 | 6
CCOc1ccc(-c2nc(CS(=O)(=O)CC(=O)NCc3ccc(F)cc3)c(C)o2)cc1 | 0.4 | . | 0 | . | .

Quoted from the listing (seven entries):
SMILES | RecA intein inh | Mtb growth | Mtb bLac sens | YopH inh | Arbovirus inh | others
O=S(=O)(NCCc1ccncc1)c1ccccc1 | -1.7 | -1% | 0 | -21 | 1
COCCNC(=O)c1ccccc1NC(=O)Cc1ccccc1[N+](=O)[O-] | -1.3 | -7% | -3 | . | 2
CCn1c(C)nc2cc(C(=O)NNC(=O)c3ccc(Cl)nc3)ccc21 | -1.2 | -5% | 6 | . | 22
Cc1ccc(C(=O)N2CCN(c3ccc(C(F)(F)F)cn3)CC2)c(C)c1 | -1.6 | 2% | -3 | 6 | 11
CCOC(=O)c1cnc(SCC(=O)NNC(=O)c2ccco2)nc1N | 0.5 | . | 5 | . | .
O=C(Cc1n[nH]c(=O)c2ccccc12)NCc1ccccn1 | -1.6 | 3% | -6 | -13 | 14 | Arbovirus inh repeat=2
COc1cccc(OCC(=O)N(C)Cc2nc(-c3cccc(C)c3)no2)c1 | -0.2 | . | -1 | . | .

Next results follow:
SMILES | RecA intein inh | Mtb growth | Mtb bLac sens | YopH inh | Arbovirus inh | others
O=C(Nc1cccnc1)Nc1ccc2c(c1)OCO2 | -1.9 | -6% | -3 | -9 | -4
COc1cc(C)ccc1OCCOCCOc1ccc(C)cc1[N+](=O)[O-] | 3.2 | 5% | -1 | -24 | 12
C#CCN1C(=O)C2(C(C#N)=C(N)OC(C)=C2C(=O)OCc2ccccc2)c2ccccc21 (stereo unspecified) | 3.6 | -10% | -2 | -31 | -8
CCC(=O)N1c2ccc(S(=O)(=O)CCC(=O)N3CCn4c3nc3ccccc34)cc2CC1C (stereo unspecified) | 0.2 | -8% | 99 | -33 | -5
O=C(CCCCCN1C(=O)c2ccccc2C1=O)Oc1ccc2c3c(c(=O)oc2c1)CCC3 | -0.6 | 31% | 76 | -26 | 2
O=C(C1CCN(S(=O)(=O)c2cccc3nsnc23)CC1)N1CC=C(c2ccccc2)CC1 | 3.8 | . | -7 | -16 | 5
Cc1oc(C(=O)Nc2ccc(O)cc2)cc1COc1ccccc1 | . | 50% | 96 | 2 | -27
CCOc1cccc(NC(=O)C2CCCN(S(=O)(=O)c3ccc(OC)cc3)C2)c1 (stereo unspecified) | -3.0 | -2% | ? | -25 | 4
O=C(CCC(=O)NNC(=O)COc1ccc(Br)cc1)NCc1ccccc1 | 2.0 | -5% | 2 | . | 12
CC(C)(C)c1ccc(C(=O)NNC(=O)c2ccccc2Br)cc1 | 2.9 | 4% | 4 | -35 | -6
c1nc(NC2CCCCC2)c2[nH]cnc2n1 | 0.0 | -1% | -10 | -32 | 7
Cc1ccc(S(=O)(=O)NCC2CCC(C(=O)NCc3cccs3)CC2)cc1 (stereo unspecified) | 0.5 | -11% | -5 | . | 4

Reprinted from the part before: 2 entries; new compounds follow.
SMILES | RecA intein inh | Mtb growth | Mtb bLac sens | YopH inh | Arbovirus inh | others
c1nc(NC2CCCCC2)c2[nH]cnc2n1 | 0.0 | -1% | -10 | -32 | 7
Cc1ccc(S(=O)(=O)NCC2CCC(C(=O)NCc3cccs3)CC2)cc1 (stereo unspecified) | 0.5 | -11% | -5 | . | 4
COc1ccc(S(=O)(=O)NC(CCSC)C(=O)NC2CCCCC2)cc1 (stereo unspecified) | 0.4 | 6% | -13 | . | 9
CCn1c(-c2ccccc2Cl)nn(CC(=O)NCCc2ccccc2)c1=S | 0.6 | 6% | 0 | 1 | 17
CCOc1cc(CNc2ncn[nH]2)ccc1OCC(=O)NC(C)(C)C | 0.5 | -9% | -2 | . | 5
O=C(c1cc([N+](=O)[O-])cc([N+](=O)[O-])c1)N(Cc1nnc(-c2ccccc2Cl)o1)C1CC1 | 1.3 | ? | 100 | . | 5
CC#CCN1c2ccccc2[C@]23C[C@@H](C(=O)OC)N(C(=O)NC(C)(C)C)C2=NC(C(=O)OC)=C(C(=O)OC)[C@H]13 | 8.3 | 0% | -6 | . | .
O=[N+]([O-])/C=C\c1ccc(N2CCOCC2)cc1 | 2.0 | . | -9 | . | .
O=C1CN(C(=O)c2c(F)cccc2F)C(c2ccc(F)cc2)c2cc(Br)ccc2N1 (stereo unspecified) | 15 | . | 0 | . | .
CC1Oc2ccccc2C=C1C1/C(=C(/O)c2ccccc2)C(=O)C(=O)N1CCCN(C)C (stereo unspecified) | -12 | -8% | -8 | -3 | -1 | Arbovirus inh repeat=4
COc1cccc(NC(=O)c2cccc(C)c2[N+](=O)[O-])c1 | -1.4 | 0% | -8 | . | -7
O=C(O)C1(c2ccc(Cl)cc2)CCC1 | . | -4% | -17 | -37 | 5
COc1ccc(NC(=O)c2ccc(-c3ccccc3)cc2)cc1S(=O)(=O)N1CCOCC1 | 8.1 | -6% | 9 | . | -5
O=C(CN1CCC(n2nnc3ccccc32)CC1)NCc1cccs1 | 0.7 | -17% | -1 | -46 | -4
O=C(COC(=O)CCSc1ccccc1)Nc1ccc(F)cc1Cl | 7.9 | -5% | -4 | -35 | -7
CCOc1ccc2[nH]cc(C(=O)NCc3ccccc3)c(=O)c2c1 | 5.3 | . | 10 | . | .
COc1cc(C(C)=O)ccc1OCC(=O)N(CCC1=CCCCC1)c1c(N)n(Cc2ccccc2)c(=O)[nH]c1=O | 1.9 | . | 6 | . | .
C=CCn1c(O)c(N=Nc2c(C)n(C)n(-c3ccccc3)c2=O)c(=O)[nH]c1=S | -3.8 | -8% | -1 | -19 | -32
COc1cccc(NC(=O)C2CCC(CNS(=O)(=O)c3cccs3)CC2)c1 (stereo unspecified) | -1.2 | 8% | -9 | . | -10
Fc1cccc2sc(N3CCOCC3)nc12 | -6.8 | -3% | -4 | -3 | -1
Cc1ccc(NC(=O)CN2CCCCCC2)cc1Br | -0.4 | 5% | -14 | . | -9
CC(C)OCC1Cn2c(nc3c2c(=O)n(C)c(=O)n3C)O1 (stereo unspecified) | -0.3 | -6% | -6 | . | -3
CC(C)OC(=O)c1cc(NC(=O)C2C3C=CC(O3)C2C(=O)O)cc(C(=O)OC(C)C)c1 (stereo unspecified) | 4.3 | . | 2 | . | .
CCN(c1ccc(OC)cc1)c1ncnc2nc[nH]c12 | 0.6 | 1% | -2 | -55 | 16
COc1ccc(S(=O)(=O)NCCOc2ccccc2)cc1OC | 3.8 | -4% | -8 | 5 | -1
CCOC(=O)C1=C(C)N=c2s/c(=C/c3ccccc3)c(=O)n2C1c1ccc(OC)c(OC)c1 (stereo unspecified) | 6.6 | 1% | 22 | -8 | -7
COc1ccc(NC(=O)Cc2c(C)n(C(=O)c3ccc(Cl)cc3)c3ccc(OC)cc23)cc1 | -1.4 | 15% | 74 | -32 | -4
Cc1cc(C)c(-c2csc(NC(=O)COC(=O)c3ccc4c(c3)OCO4)n2)c(C)c1 | 6.3 | 6% | -2 | -19 | -14
COCCNC(=O)c1ccccc1NC(=O)c1ccc(OC)c(OC)c1 | -1.0 | -12% | -22 | -4 | -1
O=C(OCC(=O)N(CCc1ccccc1)Cc1ccccc1)c1cc(S(=O)(=O)N2CCOCC2)ccc1F | -0.7 | . | -2 | . | .
Cc1ccc2nc(SCC(=O)Nc3ccccc3N3CCOCC3)c(C#N)cc2c1 | . | . | 29 | -5 | -14
C#CCOc1c(Cl)cc(/C=N/O)cc1OC | -1.4 | 11% | -1 | -41 | 9
CCC1(C)Cc2nc(Cl)c(C#N)cc2CO1 (stereo unspecified) | 0.2 | 0% | 0 | . | .
NS(=O)(=O)c1ccc(NNC(=O)c2cccs2)cc1 | -2.8 | -3% | -4 | . | .
CC(C)CCNC(=O)CN(C)S(=O)(=O)c1cccc2nsnc12 | 1.7 | -2% | -6 | -5 | 4
COc1ccc(S(=O)(=O)Nc2ccccn2)cc1C(=O)Nc1ccccc1 | -1.3 | . | 6 | . | .
CCOc1cc(S(=O)(=O)NCc2ccccn2)c(C)cc1C | 0.9 | . | 9 | -6 | -1
COc1c(F)c(F)c(C(=O)Nc2c(C)cc(Br)cc2C)c(F)c1F | -1.5 | 1% | . | . | -11
O=C(NC(=S)Nc1cc(C(F)(F)F)ccc1N1CCOCC1)c1ccc(-c2cccc(Cl)c2)o1 | -5.1 | -11% | 5 | -11 | 8
CS(=O)(=O)N1N=C(c2ccco2)CC1c1ccco1 (stereo unspecified) | 2.1 | . | -3 | . | .
C/C=C(\C)CN1CCC(n2nccc2NC(=O)c2ccc(OC)cc2)CC1 | 5.4 | . | 4 | . | .
CC(NCCO)C(=O)C12CC3CC(CC(C3)C1)C2 (stereo unspecified) | 0.8 | -11% | -1 | -31 | 5
COc1cccc(C(=O)Nc2ccc(NC(=O)C(C)C)nc2)c1 | -1.9 | 7% | 4 | -50 | 3
Cc1ccc(NC(=O)N2CCCC2C(=O)Nc2ccc3c(c2)OCCO3)cc1 (stereo unspecified) | 1.1 | . | -5 | . | .
O=C(CSc1ccccc1)NCCSCc1ccccc1 | -4.6 | 1% | 1 | -10 | -5
CCCCc1cc(=O)oc2c(CN(C)C)c(O)c(Cl)cc12 | -69 | -9% | ? | -56 | -1
Cc1cc2nnc(SCC(=O)N3CCOCC3)n2c2ccccc12 | -1.5 | 3% | -3 | . | -4
O=C(Cc1ccccc1[N+](=O)[O-])OCC(=O)c1c[nH]c2ccccc12 | -3.4 | . | -12 | . | .
C/C(=N\NC1=NCCN1)c1ccccc1 | 1.9 | -5% | -7 | . | .
CC(=O)NC(CCS(C)(=O)=O)C(=O)N1CCc2ccccc21 (stereo unspecified) | -0.7 | -1% | 1 | -6 | 3

Of the compounds above, these have a COOH group:
SMILES | RecA intein inh | Mtb growth | Mtb bLac sens | YopH inh | Arbovirus inh | others
Nc1nonc1-c1nc2ccccc2n1CCC(=O)O | 2.7 | 1% | 9 | -44 | 2
O=C(O)C1(c2ccc(Cl)cc2)CCC1 | . | -4% | -17 | -37 | 5
CC(C)OC(=O)c1cc(NC(=O)C2C3C=CC(O3)C2C(=O)O)cc(C(=O)OC(C)C)c1 (stereo unspecified) | 4.3 | . | 2 | . | .

The list goes on.
SMILES | RecA intein inh | Mtb growth | Mtb bLac sens | YopH inh | Arbovirus inh | others
Cc1cc(C)c2nc(C)cc(Nc3ccc(C(=O)NCCO)cc3)c2c1 | 1.8 | -1% | -7 | . | .
CCCc1c(C(=O)N2CCN(c3ccccc3OC)CC2)cnn1-c1ccccc1 | -3.1 | 4% | 3 | . | .
COc1ccc(N2CCN(C(=O)CN(c3ccccc3)S(C)(=O)=O)CC2)cc1 | -3.2 | -6% | 3 | -5 | 6
O=c1oc2ccccc2cc1-c1ccc(O)cc1 | 0.7 | 30% | 7 | -34 | -11
O=C(O)CNc1nc(Cl)ccc1[N+](=O)[O-] | -1.2 | 3% | 14 | -6 | 11
COc1ccc(/C=C/c2ccc3cccc(O)c3n2)c(OC)c1OC | -0.8 | . | 100 | . | .
CCCCNC(=S)N(C)/N=C/c1ccc(OCC(=O)Nc2ccc(OC)cc2)c(OC)c1 | 0.7 | 15% | 10 | -19 | -3
CC(=O)c1c(C)[nH]c(C(=O)N2CCN(c3ccc(F)cc3)CC2)c1C | . | -6% | 22 | 3 | -5

Compound activity (PubChem)
